Source: PubChem
CSC inhib – cancer stem cell viability inhibitors, primary screen, luminescence; hit rate 1.1% among 300,000; cancer stem cell-like cells viability; inhibition, % at 7.5 µM; AID 2717, 2010;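 active = mean at 75% or more and at least half the replicates too; inconclusive = mean and replicates disagree; tested in HMLE shEcad cells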;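 also: 0% = median of negative and 100% = median of positive control wells; the first replicate is given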
Rce1 inhib – yeast Rce1p protease inhibitors, primary screen, biochemical, fluorescence, cell-free homogeneous; CAAX prenyl protease 2 (Saccharomyces cerevisiae (strain ATCC 204508 / S288c)), Q03530; calls only; yeast membranes, quenched prenylated peptide cleavage fluorescence; hit rate 0.27% among 290,000;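 active = fall in fluorescence gain of 50% or more versus controls, with final raw signal at or below 3038400; inconclusive = same 50% fall but final raw signal above 3038400; inactive = fall in fluorescence gain under 50%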;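 also: plate controls were neutral control wells for no effect and wells lacking membranes for full effect; tested at 10 µM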
UUG fidelity – modulators of yeast start codon fidelity, primary screen, whole organism, S. cerevisiae, single point, plate reader. activity score, % at 18.7 µM. S. cerevisiae UUG-firefly luciferase reporter, luminescence/redox ratio. hit rate 0.13% among 350,000;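 active = replicate mean at a twofold rise or more, about +100% in these data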;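 also: firefly luciferase made from a UUG start codon reports start codon fidelity; reporter light over untreated wells divided by growth signal over untreated wells; some hits fall short of that in this replicate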
eIF4H inh – human eIF4H binding inhibitors, primary screen, translation initiation inhibitor project, biochemical, uHTS, fluorescence polarization; Eukaryotic translation initiation factor 4H (Homo sapiens), Q15056; eIF4H fluorescence polarization binding assay; inhibition, % at 35 µM; hit rate 0.94% among 290,000; AID 2012, 2009;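 active = 50% or more with normal probe brightness, or confirmed in later tests; inconclusive = above 50% with abnormal brightness, or retests that disagree; inactive = below 50% or failed in later tests; about a fifth of its hits are not listed in these tables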;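 also: calls also rest on retests at 20 µM and on dose response follow-up; 0% = protein and probe with vehicle and 100% = probe without protein; strong numbers were not always called active; many hits fall short of the cut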
HIV Env fusion – inhibitors of HIV-1 Env-driven cell-cell fusion, primary screen, HeLa-JRFL effector, CEM21 target cells, luciferase; inhibition, % at 12.3 µM; hit rate 1.1% among 360,000; AID 651610, 2012;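 active = mean replicate inhibition score of at least 50 and every replicate individually at or above 50; inconclusive = only one of the two criteria met; inactive = mean below 50 and not all replicates reaching 50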;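 also: 0% = plate neutral controls and 100% = maraviroc near 300 nM; one replicate is shown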
PABP FP inh – PABP poly(A) RNA binding inhibitors, primary screen, biochemical, fluorescence polarization, uHTS. Polyadenylate-binding protein 1 (Homo sapiens), P11940. hit rate 1% among 290,000. inhibition, % at 35 µM. AID 2014, 2009;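 active = 50% or more with normal probe brightness, or confirmed in later tests; inconclusive = above 50% with abnormal brightness, or retests that disagree; inactive = below 50% or failed in later tests; about a fifth of its hits are not listed in these tables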;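 also: calls also rest on retests at 20 µM and on dose response follow-up; controls were probe without protein and protein plus probe with vehicle; some compounds called inactive have numbers as strong as hits; many hits fall short of the cut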
Target sequence (P11940 whole entry, looked up): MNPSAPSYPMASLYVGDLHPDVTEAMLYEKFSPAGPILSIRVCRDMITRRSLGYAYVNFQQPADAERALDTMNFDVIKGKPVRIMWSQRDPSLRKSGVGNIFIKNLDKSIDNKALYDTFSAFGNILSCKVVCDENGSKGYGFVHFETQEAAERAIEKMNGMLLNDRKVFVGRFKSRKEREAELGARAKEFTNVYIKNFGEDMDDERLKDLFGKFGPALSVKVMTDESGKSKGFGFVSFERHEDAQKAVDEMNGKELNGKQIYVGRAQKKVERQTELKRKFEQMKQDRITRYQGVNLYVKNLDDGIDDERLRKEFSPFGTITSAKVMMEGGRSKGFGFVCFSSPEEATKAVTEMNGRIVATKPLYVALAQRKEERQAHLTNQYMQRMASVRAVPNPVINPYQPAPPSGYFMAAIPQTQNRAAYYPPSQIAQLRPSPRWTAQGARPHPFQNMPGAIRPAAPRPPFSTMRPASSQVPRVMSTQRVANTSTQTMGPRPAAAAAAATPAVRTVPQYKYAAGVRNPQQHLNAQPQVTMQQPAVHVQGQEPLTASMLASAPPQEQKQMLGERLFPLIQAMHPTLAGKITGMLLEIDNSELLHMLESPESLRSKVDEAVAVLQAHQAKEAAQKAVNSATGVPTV
MT1-MMP act inh – blockers of MT1-MMP proenzyme processing, primary screen, HT1080 RFP-PRO-GFP cells, GFP/RFP fluorescence. GFP/RFP ratio fluorescence, overnight; percent of plate control window, DMSO zero. GFP/RFP ratio change, % at 20 µM. hit rate 0.061% among 360,000;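 active = GFP/RFP ratio change of at least 30% with cell ATP level not reduced by more than half and red fluorescence within 50% of control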; also: strong numbers were not always called active
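Material – HT1080 RFP-PRO-GFP cells · Control set – DMSO wells and RFP-L50D-GFP cells · Incubation – overnight cell settling, then overnight compound exposure, 37 °C, 5% CO2 · Compound dosing – single-point 20 µM compound, 1% DMSO · Read-out – GFP/RFP fluorescence ratio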
eIF4H inh retest – second read-out of eIF4H inh, no call of its own (marks repeat the call); inhibition, %; compound at 20 µM; confirmation average;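 mean of two retest wells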
PABP FP inh retest – recorded beside PABP FP inh, whose call it bears; inhibition, %; compound at 20 µM; confirmation repeats;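 mean of two retest wells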
MT1-MMP act inh RFP – also measured in MT1-MMP act inh; calls as there; RFP signal change, %; measured here: RFP expression control read;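 0 = vehicle wells; hits needed this value within 50% of zero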
The depositor's hits bear a star; i = inactive; ? = inconclusive; . = not tested or not shown.

SMILES | CSC inhib | Rce1 inhib | UUG fidelity | eIF4H inh | HIV Env fusion | PABP FP inh | MT1-MMP act inh | MT1-MMP act inh RFP | others
CCOc1ccc(N2CC(C(=O)Nc3c(C)n(C)n(-c4ccccc4)c3=O)CC2=O)cc1 (configuration not stated) | -11.3 | i | . | 2.1 | 20.4 | -0.5 | -1.0 | 3.2
COCCCn1c(=O)cc(C)[nH]c1=S | -6.4 | i | . | -1.7 | -0.9 | 1.6 | 4.3 | 3.4
N#CCc1c(C#N)c(N)nc(N2CCCC(O)C2)c1C#N (configuration not stated) | . | i | -13.0 | 12.0 | -11.2 | 13.5 | 0.4 | 1.8
CSc1nsc(SCC(=O)Nc2cc(C(=O)O)ccc2C)n1 | 11.8 | i | -24.7 | 2.1 | -4.3 | 7.5 | -5.5 | -0.4
O=C(NCc1ccncc1)c1ccc(Br)o1 | 27.6 | i | -10.0 | -4.8 | -83.2 | 9.6 | 3.9 | 4.7
CCOC(=O)C1CC(=O)c2cc(OC)c(OC)cc2C1 (configuration not stated) | -7.0 | i | -8.0 | -9.2 | -4.6 | 10.3 | 0.7 | 1.9
CN(C)S(=O)(=O)Nc1ccc(Oc2ccccc2)cc1 | -12.7 | i | 2.0 | 5.2 | . | -7.8 | 7.2 | -0.7
CC1Cc2ccccc2N1S(=O)(=O)c1ccc2c(c1)n(C)c(=O)c(=O)n2C (configuration not stated) | -5.3 | i | -8.0 | 4.4 | -47.3 | 22.9 | -0.6 | -2.5
Cc1cc(C)n(/N=C/c2ccc(C(C)C)cc2)c(=O)c1C#N | 3.0 | i | . | 4.6 | 15.5 | 1.4 | 3.9 | 8.4
Cc1ccc(NC(=O)CNCC2CCCCC2)cc1S(=O)(=O)N(C)C | -10.4 | i | . | 10.4 | -47.7 | 0.9 | 3.8 | -0.2
O=C(Cc1ccc(Cl)cc1)N1CCOCC1 | -18.0 | i | -8.2 | -10.3 | -27.0 | 2.2 | 0.3 | -0.7
Oc1ccc(Nc2nc(-c3ccc(O)cc3)cs2)cc1 | 29.9 | i | . | 0.0 | 29.5 | 7.9 | -6.1 | -2.6
COc1cc(C(=O)OCC(=O)NCc2ccco2)cc(OC)c1OC | -2.8 | i | -17.4 | 8.9 | . | 0.6 | 1.3 | -0.5
CCOc1ncccc1C(=O)OCC(=O)Nc1ccc(C(N)=O)cc1 | -10.7 | i | -11.1 | -9.0 | 9.8 | 0.6 | -0.8 | 4.2
C=CCn1c(SC(C)C(=O)NCc2ccc3c(c2)OCO3)nc2scc(-c3ccccc3)c2c1=O (configuration not stated) | -4.4 | i | -16.7 | -5.8 | 119.2* | 9.1 | -8.8 | -7.2
COc1ccccc1C(=O)Nc1ccc(S(=O)(=O)N2CCCC2)cc1 | -8.2 | i | . | 3.2 | -3.5 | -15.6 | 1.8 | 0.3
O=c1[nH]c(C2CCCN(S(=O)(=O)c3cccc(Cl)c3)C2)nc2c1nnn2Cc1ccc2c(c1)OCCO2 (configuration not stated) | 7.9 | i | -4.4 | . | 8.9 | . | -4.8 | -5.0
CC(=O)c1cc(C#N)c(N2CCN(c3ccccc3)CC2)nc1C | 5.7 | i | -18.0 | -3.6 | -17.3 | 0.5 | -1.0 | 0.2
COc1ccc(C(=O)Nc2cc(Cl)cc(Cl)c2)c(OC)n1 | -3.8 | i | -15.2 | -2.3 | . | -19.3 | 1.8 | 5.4
COc1cccc(C(=O)N2CCC(CCC(=O)Nc3cccc(C)c3)CC2)c1 | 2.9 | i | 2.9 | 12.9 | -36.0 | -7.5 | 4.1 | 5.4
COC(=O)CSc1cc(SCC(=O)OC)c(C#N)c(SCC(=O)OC)c1 | -14.5 | i | . | -5.7 | . | -11.6 | 4.3 | -1.3
Cc1occc1-c1nnc(SCC(=O)Nc2nccs2)n1Cc1ccco1 | -9.8 | i | -6.5 | -9.7 | -50.4 | -0.3 | -4.3 | -3.2
NC(=O)c1cc2ccccc2o/c1=N\NC(=O)c1ccncc1 | -6.8 | i | -15.3 | 9.4 | 16.7 | 2.1 | -1.6 | -1.8
CCc1nc2ccc(C(=O)NCCCN3CCCC3=O)cn2c1N(CC)CCN(C)C | . | . | -3.5 | . | -1.8 | . | -7.0 | -0.6

Continued; it opens with the 3 that closed the last part.
SMILES | CSC inhib | Rce1 inhib | UUG fidelity | eIF4H inh | HIV Env fusion | PABP FP inh | MT1-MMP act inh | MT1-MMP act inh RFP | others
Cc1occc1-c1nnc(SCC(=O)Nc2nccs2)n1Cc1ccco1 | -9.8 | i | -6.5 | -9.7 | -50.4 | -0.3 | -4.3 | -3.2
NC(=O)c1cc2ccccc2o/c1=N\NC(=O)c1ccncc1 | -6.8 | i | -15.3 | 9.4 | 16.7 | 2.1 | -1.6 | -1.8
CCc1nc2ccc(C(=O)NCCCN3CCCC3=O)cn2c1N(CC)CCN(C)C | . | . | -3.5 | . | -1.8 | . | -7.0 | -0.6
COc1ccc(CCNC(=O)Cn2nnc(-c3ccc(OC)c(OC)c3)n2)cc1OC | 2.9 | i | . | -3.9 | 6.2 | -1.5 | -5.1 | -2.7
CC1=C(/C=N/Nc2ccc([N+](=O)[O-])cc2[N+](=O)[O-])C(C)(C)CCC1 | 39.1 | i | -18.7 | -2.1 | . | 16.6 | 6.5 | -2.8
CC(C)N(C)CCOC(=O)/C=C/c1ccccc1 | -4.2 | i | -13.0 | -13.4 | . | -8.1 | -2.2 | 2.1
CCOC(=O)c1ccccc1NC(=O)COC(=O)CCCOc1ccccc1 | -14.8 | i | . | . | -14.0 | . | -2.5 | -0.4
Cc1noc(C)c1COc1ccc(C(=O)OCC(=O)NC2CCCCC2C)cc1 (configuration not stated) | -0.7 | . | . | 0.1 | . | -4.3 | 2.4 | 4.2
COc1ccc(/C=C(/NC(=O)c2ccc(OC)c(OC)c2)C(=O)NCCc2c[nH]c3ccccc23)cc1 | 3.4 | i | -3.1 | -5.3 | 6.7 | 9.3 | -0.6 | -2.3
Cc1nc(N)c2c(Cc3cccc4ccccc34)nn(C(C)(C)C)c2n1 | 10.8 | i | -6.2 | . | 50.6 | . | -2.6 | -6.6
C=CCn1c(SCc2c(F)cccc2Cl)nnc1-c1ccco1 | -5.8 | . | -16.4 | 2.1 | -0.4 | 6.7 | -4.5 | -3.3
CC1(C)CC(=O)C2=C(C1)N(c1ccc(Cl)cc1)C(=O)C2(O)C(F)(F)F (configuration not stated) | -2.5 | i | . | -9.4 | -128.6 | 9.9 | 5.2 | 8.3
COc1cc(C(=O)NCCC(=O)N2CCCCC2)cc(OC)c1OC | -0.7 | i | -3.7 | 1.6 | 23.3 | 2.0 | -0.2 | 1.8
CCCCOC(=O)C1CN(c2ccccc2)N=C1C(C)=O (configuration not stated) | 12.1 | i | . | -9.5 | 9.4 | -11.7 | 4.8 | 3.1
COc1ccc(NC(=S)NC(=O)C2CCCCC2)cc1 | 4.6 | i | -9.4 | 11.7 | -22.0 | 15.0 | -1.3 | -0.1
CSc1ccc(S(=O)(=O)NCC(=O)OCC(=O)NCCc2ccccc2)cc1[N+](=O)[O-] | -7.2 | i | -11.6 | . | 14.7 | . | 3.0 | 0.1
CCC(C)(C)NC(=O)C(c1ccc(O)cc1)N(Cc1ccco1)C(=O)CCC(=O)Nc1ccccn1 (configuration not stated) | 3.3 | i | -3.8 | -7.0 | -4.0 | 7.2 | -2.0 | -0.4
O=C(NCc1cccnc1)c1cccnc1-c1nc2ccccc2s1 | -5.8 | i | -5.1 | 8.4 | 1.4 | -1.3 | 3.4 | 8.7
COC(=O)c1ccc(N/C=C/C(=O)c2ccccc2)cc1 | 12.6 | i | -11.8 | -6.9 | -165.5 | -51.0 | 4.4 | 3.1
CCOc1ccc(NC(=O)CCC(=O)N/N=C2\CCCc3ccccc32)cc1 | -1.6 | i | -15.3 | 3.2 | 2.6 | -2.5 | . | .
Cn1c(C(=O)N[C@@H](Cc2ccccc2)C(=O)NCCC(=O)O)cc2cc(Cl)ccc21 | -15.0 | i | 9.9 | 71.2 | -2.6 | 50.5 | -8.3 | -1.9 | eIF4H inh retest=16.3;PABP FP inh retest=49.8
COc1ccc(N2CCN(C(=O)COC(=O)c3cccc(S(=O)(=O)Nc4ccccc4OC)c3)CC2)cc1 | -4.1 | i | -13.2 | . | 29.2 | . | -1.9 | -26.3
O=C(CCCNc1ccccc1)N/N=C/c1cccs1 | -5.0 | i | . | -3.0 | -2.1 | -12.0 | 3.6 | 1.9
CCC(=O)c1ccc(-c2ccccc2)cc1 | 3.2 | i | . | -7.8 | 5.4 | 0.3 | -1.6 | 4.6
O=C(Nc1ccccc1)c1ccccc1NS(=O)(=O)c1ccc(Cl)s1 | 43.3 | i | 13.5 | 3.2 | . | -6.0 | -4.5 | -30.9
O=C(Nc1ccc(Cl)cc1)OCCn1nnnc1C(c1ccccc1Cl)N1CCOCC1 (configuration not stated) | . | i | 6.4 | -5.6 | 112.9* | 3.0 | 5.2 | 3.2
CCOC(=O)CN(C(=O)COc1nc(C)cc(C)c1C#N)c1ccc(F)cc1 | . | i | . | -2.6 | -2.0 | 1.9 | -2.4 | -0.2
CCN1CCN(C(=O)CN(C)S(=O)(=O)c2ccc(OC)c(C)c2)CC1 | 4.8 | i | 2.2 | -9.1 | -24.8 | -11.5 | -1.9 | 0.7
CN(CCC#N)C(=S)Nc1ccc(F)cc1 | -3.5 | i | -17.3 | -6.3 | 7.2 | -3.7 | 1.0 | -2.4
CCn1c(NCc2cc(Cl)ccc2O)nc2ccccc21 | 26.1 | i | -8.2 | 5.3 | 5.7 | 4.1 | 0.8 | -0.2
C=CCn1c(=S)[nH]c2sc3c(c2c1=O)CCC3 | . | i | 0.9 | 13.9 | . | -2.9 | 4.7 | 2.8
CC1CC(C)CN(S(=O)(=O)c2ccc(NC(=O)CN3C(=O)NC(C)(c4ccccc4)C3=O)cc2)C1 (configuration not stated) | 10.9 | i | 7.5 | -8.4 | -13.9 | -10.3 | 5.1 | 7.4
COc1ccc(O[C@H]2C=C[C@@H](c3ccccc3)O[C@@H]2CO/N=C(\C)CCN2CCCCc3nc(C)c(C)cc32)cc1 | . | . | . | -1.3 | 47.7 | 4.4 | . | .
O=C(COc1nncc2ccccc12)NCC(F)(F)F | 1.3 | i | . | -5.8 | 5.3 | 18.4 | 1.5 | 4.5
COc1ccccc1OCc1nc(C#N)c(NCc2ccco2)o1 | 3.3 | i | -6.3 | -11.8 | -35.4 | 3.1 | -2.0 | -1.4
CC(C)c1ccc(NC(=S)N2CCCC2)cc1 | -9.3 | i | -24.3 | 1.5 | -29.0 | 0.5 | 3.6 | 3.8
COC(=O)c1cccnc1SCc1ccccc1 | -4.1 | i | . | -8.3 | -6.8 | -2.3 | 0.5 | 2.4
CC1=Nc2cccc3cccc(c23)N1C | -20.3 | i | . | ? | -10.6 | 36.0 | 1.3 | 0.7
